Source: PubChem BioAssay (National Center for Advancing Translational Sciences (NCATS))
D2 PAM: potentiates the human D2 dopamine receptor allosterically; P14416; DiscoveRx D2 beta-arrestin cells, luminescence, 90 min; 100% = 57 uM dopamine signal; potentiation, % (test concentration not listed); 360,000 compounds, 0.23% hits; AID 624464; active = potentiation of 50% or more; inconclusive = 30% to 50%; inactive = 30% or less;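 further: compound concentration not given in the record; tested on top of an EC20 dose of dopamine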
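D2 cells co-treated with compound plus 50 nM dopamine (EC20) for 90 min at 37 deg C to detect potentiation. Beta-arrestin recruitment was read as enzyme-fragment luminescence after 1 h at ambient temperature. Full response was set by 57 uM dopamine.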
CtBP-E1A blk: CtBP/E1A binding inhibition; AlphaScreen GST-E1A/His-CtBP binding, 1536-well; hits give low values; control for the full effect not named in the record; activity change, % (concentration not given with the values); 340,000 compounds, 0.49% hits; in the data active means activity change below about -65%; inconclusive means about -30% to -65%; inactive means above about -30%; further: on the % scale 0 is the no-effect control and ±100 the full control effect
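Homogeneous bead-based format: GST-tagged E1A captured on glutathione donor beads, His-tagged CtBP on nickel acceptor beads; compounds precede bead addition by 2 h at 37 °C.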
PINK1 expr mod: PINK1 expression modulation | PINK1 immunofluorescence, high-content cytometry, 24 h | Potency, µM (top dose mostly 76.6 µM), for the others: top-dose activation (PINK1 increase), usual class: activators | 410,000 compounds, 0.2% hits | AID 624263; active = well fitted activation curve with a large enough effect; inconclusive = small, poorly fitted or top-dose-only effect; inactive = flat fitted curve, though single readings scatter; cell line not stated here;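 further: potency means the concentration at half of the fitted maximal effect; % of control where 0% means no effect; nearly all actives have a fitted effect of over 65% in size; a mitochondrial uncoupler was the plate control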
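A stable cell line was treated with compounds at 5 concentrations for 24 hours, with CCCP as control. PINK1 levels and mitochondrial localization were measured by immunofluorescence with mitochondrial, cell and nuclear markers after fixation, read by laser-scanning cytometry.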
D2 ag: agonists of human D2 dopamine receptor (beta-arrestin) | P14416 | DiscoveRx PathHunter D2 beta-arrestin, luminescence, 90 min; 100% = 57 uM dopamine signal | activation, % (no concentration beside the values) | 360,000 compounds, 0.084% hits; in the data active = activation above about 40%; inconclusive = about 15% to 40%; inactive = below about 15%; further: compound concentration not given in the record; the text of the record calls up to 30% inactive
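DiscoveRx PathHunter D2 beta-arrestin cells (2,100/well) attached overnight, then compound-stimulated 90 min at 37 C in HBSS/10 mM HEPES/0.1% Tween-20 buffer; beta-galactosidase complementation read by luminescence after 1 h at ambient temperature. Dopamine 57 uM final (EC100) as control.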
TRPML1 agonist: human mucolipin-1 channel agonism; Q9GZU1; TRPML1-expressing cells, Ca2+ dye fluorescence, FDSS; host cell line not named in the record; reference of the full effect not given here; activation, % (no concentration beside the values); 410,000 compounds, 0.12% hits; in the data active = activation above about 50%; inconclusive = about 30% to 50%; inactive = below about 30%; further: 0% is about no effect; the text of the record puts the active cut at 80%
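Tet-induced TRPML1-DL cells, 1,500 per well, cultured overnight, were loaded with a no-wash Ca2+ dye for 45–90 min. Calcium fluorescence was recorded on the FDSS for 110 s after compound addition, before the EC80 agonist (4 uM 54-4) was added.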
Six1-Eya2 blk: Six1/Eya2 interaction inhibition. 360,000 compounds, 0.56% hits. AID 651725. Q15475+O00167. activity change, % (test concentration not listed). AlphaScreen GST-Six1/His-Eya2 binding, biochemical; hits give low values; control for the full effect not named in the record; in the data active = activity change below about -65%; inconclusive = about -30% to -65%; inactive = above about -30%; further: on the % scale 0 is the no-effect control and ±100 the full control effect
Target sequence (O00167 whole entry, looked up): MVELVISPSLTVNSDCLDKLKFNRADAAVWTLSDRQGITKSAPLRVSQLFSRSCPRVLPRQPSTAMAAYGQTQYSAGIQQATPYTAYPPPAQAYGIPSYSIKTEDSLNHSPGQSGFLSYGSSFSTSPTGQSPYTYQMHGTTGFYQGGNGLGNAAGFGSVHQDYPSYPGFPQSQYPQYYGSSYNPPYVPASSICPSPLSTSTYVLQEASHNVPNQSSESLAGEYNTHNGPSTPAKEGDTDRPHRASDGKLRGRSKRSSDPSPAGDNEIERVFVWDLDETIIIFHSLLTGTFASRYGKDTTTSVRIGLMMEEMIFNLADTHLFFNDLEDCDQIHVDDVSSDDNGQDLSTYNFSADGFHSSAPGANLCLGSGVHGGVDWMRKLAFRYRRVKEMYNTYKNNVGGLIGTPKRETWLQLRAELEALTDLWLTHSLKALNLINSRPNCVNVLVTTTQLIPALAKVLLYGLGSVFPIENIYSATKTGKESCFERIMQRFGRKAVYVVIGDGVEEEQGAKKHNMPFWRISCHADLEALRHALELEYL
Target sequence (Q15475 whole entry, looked up): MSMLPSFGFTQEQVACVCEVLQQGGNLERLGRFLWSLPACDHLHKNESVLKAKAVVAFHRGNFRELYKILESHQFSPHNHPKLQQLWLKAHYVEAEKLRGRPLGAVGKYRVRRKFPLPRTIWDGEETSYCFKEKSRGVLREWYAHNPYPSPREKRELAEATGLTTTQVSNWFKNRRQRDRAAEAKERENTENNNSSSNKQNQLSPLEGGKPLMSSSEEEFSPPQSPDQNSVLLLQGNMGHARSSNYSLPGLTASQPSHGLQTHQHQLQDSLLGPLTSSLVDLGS
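Homogeneous AlphaScreen proximity assay pairing GST-Six1 with His-tagged Eya2 (added as 5X mix: 250 nM and 500 nM) in 50 mM Tris pH 8.0, 300 mM NaCl, 1 mM TCEP. Glutathione donor and nickel acceptor beads; 1 h, 37 °C, dark.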
* hit, by the source's call; u = inconclusive; x = not tested or not shown; & = joins results of further samples; [ ] = dose if it differs, or a comment.

SMILES	D2 PAM	CtBP-E1A blk	PINK1 expr mod	D2 ag	TRPML1 agonist	Six1-Eya2 blk
COc1ccc(NC(=O)CN(C)C(=O)CNC(=O)C2CCCCC2)cc1	-9	-6	-0.3%	-4.2	0.4	6
N#C/C(=C\c1cccnc1)C(=O)Nc1ccc(Cl)cc1	-26	5	0.3%	-12	1.0	6
CCCCNC(=O)c1c[nH]c2ccc(S(=O)(=O)Nc3ccc(OCC)cc3)cc2c1=O	14	0	17%	4.1	0.9	-7
COc1ccccc1-c1nc(C(F)(F)F)c(OC)o1	-4	0	4.0%	-1.1	0.6	5
COc1cccc(CN2CCN(Cc3cc4ccccc4[nH]3)CC2CCO)c1 (stereo unspecified)	-20	x	4.3%	-0.8	28	-1
Cc1c(C(=O)N2CCN(C)CC2)oc2ccc(S(=O)(=O)N3CCOCC3)cc12	-22	6	0.4%	-3.3	-0.1	-2
COCCCn1c(SCc2ccc(OC)cc2)nc2cc(OC)c(OC)cc2c1=N	10	-11	0.7%	6.3	0.4	-6
C[C@H](CO)N1C[C@H](C)[C@@H](CN(C)C(=O)Nc2ccc3c(c2)OCO3)Oc2c(NC(=O)Nc3ccc4c(c3)OCO4)cccc2C1=O	u	-13	0.5%	u	-0.5	-14
COc1ccc(S(=O)(=O)N2CCOC2CNC(=O)C(=O)NCc2cccnc2)cc1C (stereo unspecified)	0	1	2.7%	-3.2	1.1	-4
COc1ccc(C2C3=C(CC(C)(C)CC3=O)Nc3c2c(=O)[nH]c(=O)n3Cc2ccccc2)cc1OC (stereo unspecified)	1	5	2.8%[38.3 µM]	3.0	4.7	0

Looked up above.
COc1cccc(CN2CCN(Cc3cc4ccccc4[nH]3)CC2CCO)c1 (stereo unspecified) in TRPML1 agonist → 28
Cc1c(C(=O)N2CCN(C)CC2)oc2ccc(S(=O)(=O)N3CCOCC3)cc12 in PINK1 expr mod → 0.4%
COCCCn1c(SCc2ccc(OC)cc2)nc2cc(OC)c(OC)cc2c1=N in CtBP-E1A blk → -11
COc1ccc(C2C3=C(CC(C)(C)CC3=O)Nc3c2c(=O)[nH]c(=O)n3Cc2ccccc2)cc1OC (stereo unspecified) in D2 ag → 3.0

Later entries
SMILES	D2 PAM	CtBP-E1A blk	PINK1 expr mod	D2 ag	TRPML1 agonist	Six1-Eya2 blk
CCc1nc2ccc(C(=O)NCCOc3ccc(OC)cc3)cn2c1N(C)CCCc1ccccc1	-6	-29	2.3%	-5.7	-0.7	-10
O=C(CN1CCN(c2ccccn2)CC1)Nc1cc(C(F)(F)F)ccc1Cl	-8	0	5.8%	6.3	0.0	-7
CCOC(=O)CCC(NC(=O)CC(=O)NC(CCC(=O)OCC)C(=O)OCC)C(=O)OCC (stereo unspecified)	-1	10	1.3%	-0.5	1.1	-7
CC(C)(C)NC(=O)NC(=O)COC(=O)C1CCN(S(=O)(=O)c2cccs2)CC1	-1	8	1.6%	3.1	2.2	-8
O=C(Cn1ccc([N+](=O)[O-])n1)c1ccccc1	2	0	0.8%	-2.0	1.9	22
COc1ccc2oc(C(=O)OCC(=O)N3CCCCC3C)c(C)c2c1 (stereo unspecified)	-6	3	0.9%	-4.1	1.1	3
Cc1ccc(S(=O)(=O)c2nnn3c2nc(NCCCN2CCCC2=O)c2ccccc23)cc1C	-22	u	13%	-3.0	-1.1	u
NC(=O)c1ccc(C(F)(F)F)n(Cc2ccc(Cl)cc2)c1=O	0	3	16%[38.3 µM]	2.9	8.5	4
Cc1ccc(C(=O)N2N=C(c3ccc(NS(C)(=O)=O)cc3)CC2c2cccs2)cc1 (stereo unspecified)	-3	x	-0.6%	0.9	1.8	3
CC1CN(c2nc3c(c(=O)[nH]c(=O)n3C)n2Cc2ccccc2F)CC(C)O1 (stereo unspecified)	3	5	-2.0%	-0.5	-0.7	4
CSc1nc(Nc2ccc(Cl)cc2)c(C#N)c(=O)[nH]1	-7	u	-0.9%	0.8	0.2	u
Cn1nnnc1SCc1nnc(-c2ccccc2Br)o1	14	1	0.9%	-0.7	-1.0	-6
Cc1cccc(C(=O)Nc2ncc(CN3CCOCC3)s2)c1	-11	-1	-0.3%[38.3 µM]	0.0	0.6	-2
Cc1ccccc1NC(=O)c1nnn(-c2ccc3c(c2)OCCO3)c1N	0	0	0.7%	-0.4	0.1	-4
CCn1cc(CN2CCC(n3nccc3NC(=O)Cc3ccccc3)CC2)c(C)n1	-24	1	2.2%	-4.8	-0.4	-4
COc1ccc(N2CCN(Cc3nc(Cc4cccc(F)c4)no3)C(C)C2)cc1 (stereo unspecified)	-6	-25	-1.9%	0.9	1.4	u
Nc1nc(NCc2ccco2)nc(N2CCCC2)c1[N+](=O)[O-]	1	-7	-0.1%	0.7	0.4	-4
COc1ccc(N(CC(=O)N/N=C/c2ccc(OC)cc2OC)S(=O)(=O)c2ccccc2)cc1	-2	-27	2.7%	-3.2	2.1	8
COc1cc(C2CC(c3cccs3)=NN2C(=O)CCl)ccc1OC(F)F (stereo unspecified)	-2	-1	-1.9%	-4.0	-0.1	6
Cc1ccc(N2CCN(c3ccc(C)cc3)C2c2ccncc2)cc1	6	0	6.8%	-1.5	-0.2	-19
COCCNC(=O)C1(C)CCCN(Cc2cn(C)c3ccccc23)C1 (stereo unspecified)	-2	-9	1.3%	-2.5	-0.5	-2
CCCN1C(=O)S/C(=C\c2ccc(N3CCOCC3)o2)C1=O	-3	-6	9.0%	2.3	17	5
Cc1ccc(C(=O)ON=C2CCN(S(=O)(=O)c3ccccc3)CC2)cc1	7	0	-2.3%	1.7	2.1	0
COc1ccc(CCN(C)Cc2ccc(C(=O)Nc3ccccc3)cc2)cc1OC	-37	-4	1.0%	-4.1	0.0	-8
CN(C)C(=O)c1c(C(F)(F)F)nn(C)c1Cl	3	-1	0.3%	2.0	-0.4	3
CNc1cnc(-c2cc(OC)c(OC)c(OC)c2)cn1	0	u	4.9%	-4.2	-0.6	-15
O=C(N/N=C/c1oc(O)c2ccccc12)c1ccccc1O	-10	x	0.1%	-5.2	0.2	-24
O=C(NNc1ccc([N+](=O)[O-])cc1)C12CC3CC(CC(C3)C1)C2	-9	-5	21%[38.3 µM]	-2.5	1.1	-11
COCCCn1c(C)cc(C(=O)CN2c3cccc4cccc(c34)S2(=O)=O)c1C	2	-2	0.8%	11	1.4	-7
COCc1nc(-c2ccc(-c3ccccc3)nc2OC)no1	-4	15	-0.5%	-1.0	1.5	10

Three compounds already listed, ordered by the number in CtBP-E1A blk, largest number first.
| Structure | CtBP-E1A blk |
| --- | --- |
| Cc1ccc(C(=O)ON=C2CCN(S(=O)(=O)c3ccccc3)CC2)cc1 | 0 |
| CN(C)C(=O)c1c(C(F)(F)F)nn(C)c1Cl | -1 |
| CCCN1C(=O)S/C(=C\c2ccc(N3CCOCC3)o2)C1=O | -6 |

Going on with the list:
SMILES	D2 PAM	CtBP-E1A blk	PINK1 expr mod	D2 ag	TRPML1 agonist	Six1-Eya2 blk
COc1ccc(N2C(=O)CC3(CCCC3)CC2=O)cc1	3	-2	1.5%	-6.0	-0.5	0
CN(C1CCCCC1)S(=O)(=O)c1ccc2c(c1)c(=O)c(C(=O)N1CCc3ccccc3C1)cn2C	-20	16	26%[38.3 µM]	-2.4	-0.4	1
O=C(c1cc2ncc(Br)cn2n1)N1CCOCC1	-9	4	2.4%[38.3 µM]	-1.0	-0.4	0
Cc1ccc(NC(=O)CN2CCc3ccccc3C2)cc1S(=O)(=O)N1CCOCC1	-16	-1	3.5%	1.9	-0.8	-3
CCCCCOc1ccc(C(=O)OCC(=O)Nc2cc(C)on2)cc1	5	-4	1.4%	-3.3	0.2	5
CN1CCN(/N=C/c2ccc(-c3ccc([N+](=O)[O-])cc3)o2)CC1	-6	x	-0.7%	-2.6	18	-12
O=C(COC(=O)c1ccc([N+](=O)[O-])s1)Nc1ccc(Cl)cn1	6	x	1.1%	u	-0.1	2
O=c1cc(C(F)(F)F)[nH]c2ccc(OC(F)(F)F)cc12	-8	3	35µM*	-5.0	1.0	0
O=C(NCc1cccc(F)c1)c1cccc2c1C(=O)c1ccc(N3CCC(Cc4ccccc4)CC3)cc1S2(=O)=O	-14	13	1.6%	-4.2	29	3
COc1ccc(NC(=O)CSc2nnc(Cc3cccn3C)n2CCc2ccccc2)c(OC)c1	-5	u	-0.5%[38.3 µM]	-3.2	-0.6	-30
CCOc1ccc(N/C=C/C(=O)c2ccc(OC)cc2)c([N+](=O)[O-])c1	1	10	x	-1.5	-0.4	-13
CN(C)/C=C1/N=C(c2ccccc2)OC1=O	-6	-14	-3.1%	-0.6	-0.3	-3
Cc1ccccc1Nc1ncnc2c1cnn2C	1	0	1.2%&-0.3%	8.6	-0.2&1.2	3
CCC(=O)c1ccc(OCC(=O)OCC(=O)c2cc(C)n(C3CC3)c2C)cc1	14	3	-0.3%	-3.8	-0.3	-12
O=C(NC1CCCCCC1)C1C2C=CC3(CN(Cc4cccnc4)C(=O)C13)O2 (stereo unspecified)	-1	5	-0.4%	-1.8	-0.1	-2
CCOC(=O)c1nc(C)n(-c2cc(OC)c(Cl)cc2Cl)n1	-14	-9	0.3%	2.9	-0.1	9
CN(c1ccccc1C(=O)O)S(=O)(=O)c1ccc2[nH]c(=O)[nH]c2c1	-1	x	-0.7%	6.7	-0.2	-1
CCc1nnc(NC(=O)CN2CCN(c3ccccc3F)CC2)s1	-9	x	0.0%	4.6	0.5	5
C/C(=N\NC(=O)CSCc1ccc([N+](=O)[O-])cc1)c1ccccc1	-22	-11	-0.5%	-3.5	1.0	-1
COc1ccc(-c2cc(C(F)F)n3ncc(C(=O)Nc4ccc(C(=O)N5CCOCC5)cc4)c3n2)cc1	-8	-2	2.8%	1.7	1.4	-4
CN1C2CC(OC(=O)C(CO)c3ccccc3)CC1C1OC12 (stereo unspecified)	0&-4&0	1&2&5	-0.9%&8.7%&0.2%	1.1&-5.1&0.5	-0.1&-0.4&0.8	-7&4&11
N/N=C1\CCCc2nonc21	-1	13	1.1%	-3.4	-0.5	-4
O=C(NC1CCCCC1)N1CCCC(c2nc(-c3cccs3)no2)C1 (stereo unspecified)	0	-3	-0.4%	0.7	0.1	8
COc1ccccc1CNc1nc(S(=O)(=O)c2ccccc2)c(Cl)s1	-7	4	1.7%	-1.1	0.9	0
COCCC1CCCCN1Cc1cn(-c2ccccc2)nc1-c1ccc2c(c1)OCO2 (stereo unspecified)	-18	x	2.4%	-5.4	0.2	-7
CC1CCCC(C)N1CCCNC(=O)Cn1c(=O)c2cccn2c2cccnc21 (stereo unspecified)	-5	8	-0.6%	-3.3	0.0	0
COc1ccc2c(c1)C(=O)/C(=C/C=C/c1ccccc1)CC2	4	0	8.5%	2.4	1.7	-12
CCOC(=O)C1CCCN(Cc2nc(Cc3cccc(F)c3)no2)C1 (stereo unspecified)	-13	1	2.3%	-1.7	-0.1	4
C[C@H](CO)N1C[C@H](C)[C@@H](CN(C)Cc2ccncc2)Oc2c(NC(=O)C3CC3)cccc2C1=O	1	4	-0.2%	-5.9	0.5	2
Cc1cccc(C)c1NC(=O)CCCSc1nnc(-c2ccco2)o1	0	-8	-4.2%	-0.8	0.0	1
COc1ccc(NC(=S)NCCCN2CCCC2)cc1Cl	-11	0	-0.9%	0.4	0.1	0
Cc1c(/C=N/NC(=O)c2ccc(O)cc2)c2ccccn2c1C(=O)c1ccc(F)cc1	-24	-78*	0.4%	-2.4	0.7	-70*
